Source: PubChem (several laboratories)
HSV augment: HSV replication enhancement | hit rate 0.005% among 220,000 | maximum fold increase | HSV replication augmentation in cells, fold increase;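 active = peak rise of 1.5-fold or more in the series; tested in PC3 cells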;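 note: first round at 10 µM; read as green reporter fluorescence; hits show the peak of a series up to 25 µM; 1 = signal of infected wells without compound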
GALR2 ag: agonists of human galanin receptor 2 (GALR2); O43603; GALR2-expressing cells, agonist activation read-out; activation, %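 (tested at 5 µM)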; hit rate 0.48% among 140,000; AID 803;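 active = above mean plus 3 SD of all compounds, about 5% in these data, not always enough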;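 note: 0% = vehicle buffer wells and 100% = reference agonist at full effect; tested in CHO reporter cells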
Target sequence (O43603 whole entry, looked up): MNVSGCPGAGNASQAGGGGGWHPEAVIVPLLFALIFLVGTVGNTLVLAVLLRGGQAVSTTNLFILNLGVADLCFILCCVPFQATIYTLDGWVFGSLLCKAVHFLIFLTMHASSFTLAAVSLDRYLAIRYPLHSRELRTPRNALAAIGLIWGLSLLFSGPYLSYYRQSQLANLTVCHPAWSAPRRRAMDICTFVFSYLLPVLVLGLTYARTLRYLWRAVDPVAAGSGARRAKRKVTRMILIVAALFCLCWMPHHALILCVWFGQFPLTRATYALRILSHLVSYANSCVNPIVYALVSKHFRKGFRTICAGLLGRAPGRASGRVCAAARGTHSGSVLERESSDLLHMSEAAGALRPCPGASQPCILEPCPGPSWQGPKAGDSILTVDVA
PKD1 kinase inh: blocks activity of human protein kinase D1; Q15139; PKD1 kinase fluorescence polarization assay; inhibition, %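 (about 10 µM by stock and volumes)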; hit rate 0.056% among 200,000; AID 797;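 active = inhibition of 50% or more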;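 note: controls were vehicle for no effect and a reference inhibitor for full effect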
INS promoter inh: TRM-6 insulin promoter activity inhibition; TRM-6 cells (human fetal islet line), insulin promoter-eGFP reporter, imaging; reporter expression induced with tamoxifen; hit rate 0.9% among 130,000; inhibition, % at 2 µM;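 active = inhibition above the mean plus 3 SD, with well images judged a real hit on visual review, cut at about 60% in these data, passing the limit was not always enough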
RGS16-Gao HTS: modulates binding between human RGS16 and Galphao | O15492+P09471 | bead-based flow cytometry RGS16-Galphao binding, fluorescence; actives lie on both sides | binding response (% of control), % at 10 µM | hit rate 0.38% among 220,000;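 active = below 25% or above 175%, edge rows of some plates excepted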;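 note: Galphao activated by GDP with aluminum fluoride before binding; 100% = wells without compound and 0% = beads without RGS; some results beyond the cut were filed as inactive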
INS promoter inh cell count: recorded beside INS promoter inh, whose call it bears; normalized cell count, %; measured here: cell count, toxicity; reference of the scale not given here;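 cells exposed to compound for 48 h; stained nuclei by imaging scaled within each plate; lower means fewer cells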
HSV augment primary fold: recorded beside HSV augment, whose call it bears; fold increase; compound at 10 µM; measured here: primary screen fold increase 10 uM; tested in PC3 cells;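 GFP signal in the first replicate; 1 = infected wells without compound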
The depositor's hits bear a star; i = inactive; . = not tested or not shown. An unsorted share of the library; 1.1% or so of the library scored in one or more.

No.	structure	HSV augment	HSV augment primary fold	GALR2 ag	PKD1 kinase inh
1	COc1ccc([N+](=O)[O-])cc1NC(=O)Nc1ccc(OC)c(OC)c1	i	0.98	.	-1
2	Nc1nc(-c2sc3nc4c(cc3c2N)CCCC4)nc(N2CCOCC2)n1	i	0.9	.	-9
3	Cc1nc2ccccn2c1-c1ccnn1S(=O)(=O)c1ccc(F)cc1	i	0.91	.	.
4	Cc1ccc(S(=O)(=O)n2nc(-c3ccco3)nc2N)cc1	i	0.9	.	4
5	CC(=O)N1SC(N)=NC1c1ccccc1 (stereo unspecified)	i	0.95	-0.9	-5
6	O=C(CSc1nnc(-c2ccccn2)n1Cc1ccco1)c1ccccc1	i	0.95	0.2	-4
7	COc1ccc(CCNc2nc(N3CCCCC3)nc(N3CCCCC3)n2)cc1OC	i	0.85	-1.6	3
8	CCN(CC)C(=S)NC(=O)Cc1ccccc1	i	1.1	.	-9
9	COc1ccc2[nH]c(=O)c(CN(Cc3cccnc3)C(=S)NCC3CCCO3)cc2c1 (stereo unspecified)	i	1	.	7
10	C/C(=N\NC(=O)c1ccoc1C)c1cccnc1	i	1	-1.0	6

No.	INS promoter inh	INS promoter inh cell count	RGS16-Gao HTS
1	.	.	96
2	.	.	100
3	.	.	95
4	-20	100	89
5	-71	132	120
6	-38	203	96
7	38	147	101
8	5	37	100
9	.	.	59
10	11	140	98

Additional structures.
No.	structure	HSV augment	HSV augment primary fold	GALR2 ag	PKD1 kinase inh
11	COc1cc(OC)cc(OCC(O)Cn2cnc(-c3ccccc3)c2)c1 (stereo unspecified)	i	0.92	-0.8	-6
12	CCCc1nnc2n1N=C(c1ccc(OC)c(OC)c1)CS2	i	0.77	2.2	-10
13	CC(C)OP(=O)(OC(C)C)C(Nc1ccccn1)c1ccc(F)cc1 (stereo unspecified)	i	0.87	-2.0	-13
14	Cc1ccc(Cl)c(NC(=O)CN(C)CC(=O)Nc2ccc(F)c(F)c2F)c1Cl	i	0.96	.	-1
15	CCOC(=O)C1(CCCc2ccccc2)CCN(C(=O)C(C)n2cncn2)CC1 (stereo unspecified)	i	0.99	.	0
16	CC(=O)c1ccc(NC(=O)C2CC(=O)N(C(C)C)C2)cc1 (stereo unspecified)	i	0.93	.	-8
17	COc1ccc(C(=O)OCCOc2ccccc2C(C)=O)c(O)c1	i	1	.	5
18	O=C(O)c1ccc(COc2ccccc2[N+](=O)[O-])o1	i	0.98	0.2	-11
19	C[C@H](NC(=O)c1ccc(Br)cc1)C(=O)NCc1ccc(S(N)(=O)=O)cc1	i	0.95	.	-2
20	COc1ccc(CC(=O)Nc2ccc(-c3cn4ccccc4n3)cc2)cc1	i	0.88	-1.8	-2

No.	INS promoter inh	INS promoter inh cell count	RGS16-Gao HTS
11	38	131	102
12	11	126	106
13	-67	124	100
14	-56	78	102
15	.	.	101
16	.	.	101
17	22	152	106
18	21	102	159
19	-17	186	96
20	24	127	103

Next entries follow:
No.	structure	HSV augment	HSV augment primary fold	GALR2 ag	PKD1 kinase inh
21	O=c1c2cn[nH]c2[nH]c(=S)n1-c1ccccc1Cl	i	1.1	.	4
22	CCC(=O)NNc1ncnc2c1cnn2-c1cccc(C)c1	i	0.98	.	-6
23	O=C(O)CCCC(=O)N1N=C(c2c(-c3ccccc3)c3cc(Cl)ccc3[nH]c2=O)CC1c1cccs1 (stereo unspecified)	i	1	1.1	-6
24	CN(C(=O)c1ccccn1)C1(C(=O)NC2CCCCC2)CCCCC1	i	1	-3.5	-1
25	O=S(=O)(c1ccccc1Cl)N1CCCC1c1nc(-c2cccc(Cl)c2)no1 (stereo unspecified)	i	0.85	-1.3	-4
26	CCc1nnc(NC(=O)c2ccc(OC)cc2)s1	i	0.99	.	-8
27	O=[N+]([O-])c1ccc(Cl)c(S(=O)(=O)/N=C(/c2ccccc2)N2CCOCC2)c1	i	1.1	.	-6
28	Cc1nc(SCC(C)C)[nH]c(=O)c1Cc1ccccc1	i	0.89	-1.4	7
29	O=C(O)CCNS(=O)(=O)c1ccc2c(c1)OCCCO2	i	0.98	.	-2
30	CC(C)c1nc(SCc2ccccn2)c2c(=O)n(C)c(=O)n(C)c2n1	i	0.91	-2.5	-1

No.	INS promoter inh	INS promoter inh cell count	RGS16-Gao HTS
21	.	.	97
22	-17	94	142
23	19	104	108
24	14	40	98
25	-12	134	104
26	10	100	97
27	.	.	103
28	.	.	102
29	.	.	100
30	.	.	148

More entries
No.	structure	HSV augment	HSV augment primary fold	GALR2 ag	PKD1 kinase inh
31	CC(=O)Nc1ccc(Cl)cc1C1COC(=O)C1=N (stereo unspecified)	i	1	-1.8	-11
32	O=C(CSc1nnc(NC(=O)c2c(F)cccc2F)s1)Nc1ccc(F)cc1	i	0.96	.	-6
33	CCC(C(=O)OCC(=O)Nc1cccc(C(C)=O)c1)c1ccccc1 (stereo unspecified)	i	0.98	.	3
34	O=C(Cc1cn2ccsc2n1)OCc1ccccc1	i	1	-0.1	1
35	COC(=O)COc1ccc(S(=O)(=O)N2CCOCC2)cc1	i	0.97	-0.5	-13
36	CCC1S/C(=N/N=C/c2cccs2)NC1=O (stereo unspecified)	i	0.85	-1.9	9
37	Cc1ccc(N/C=C/C(=O)c2ccccc2)cc1C	i	0.95	-0.6	-7
38	O=C(NCc1ccco1)C(=O)NCc1ccccc1Cl	i	1	-0.6	-2
39	CCN(CC)S(=O)(=O)c1ccc(N)cc1	i	0.96	.	1
40	CCCn1cnc2cc(NC(=O)c3cccs3)ccc21	i	1	.	-5

No.	INS promoter inh	INS promoter inh cell count	RGS16-Gao HTS
31	.	.	104
32	11	107	102
33	.	.	100
34	-6	124	98
35	.	.	102
36	.	.	99
37	.	.	100
38	13	233	103
39	.	.	96
40	.	.	102

Next section:
No.	structure	HSV augment	HSV augment primary fold	GALR2 ag	PKD1 kinase inh
41	CC(C)CN(CC(C)C)CC(O)COc1ccc([N+](=O)[O-])cc1 (stereo unspecified)	i	1.1	0.5	-17
42	CCCc1[nH]nc2c1C(c1ccoc1)C(C#N)=C(N)O2 (stereo unspecified)	i	0.86	-3.8	-4
43	O=c1[nH]c(S)nc2sc3c(c12)CCCC3	i	1.1	.	-2
44	COc1ccccc1/C=C/C(=O)NCc1cccnc1	i	1.1	.	-5
45	COc1ccc(OC)c(NC(=O)c2ccc(-c3cccs3)cc2)c1	i	0.79	.	-1
46	Cc1nnc2c3ccccc3c(-c3cccs3)nn12	i	0.91	.	3
47	CNC(=O)Nc1ccc(S(N)(=O)=O)cc1	i	0.87	.	.
48	COc1cccc2c(C)c(C(=O)O)[nH]c12	i	1.1	-1.0	-3
49	COc1ccc(NS(=O)(=O)c2ccc(O)c(C(=O)OCC(=O)N3CC(C)OC(C)C3)c2)cc1 (stereo unspecified)	i	0.87	-0.5	-1
50	CCOC(=O)c1sc2nc(C)nc(Nc3ccccc3)c2c1C	i	0.95	.	8

No.	INS promoter inh	INS promoter inh cell count	RGS16-Gao HTS
41	18	64	94
42	-17	77	41
43	-37	130	103
44	-94	101	99
45	22	87	101
46	.	.	102
47	.	.	114
48	-30	116	89
49	-8	142	92
50	43	109	100

The list goes on.
No.	structure	HSV augment	HSV augment primary fold	GALR2 ag	PKD1 kinase inh
51	COc1ccc(NC(=S)N2CCCC(c3nc4ccc(C)cc4[nH]3)C2)c(OC)c1 (stereo unspecified)	i	1	.	-3
52	Nc1cccc(C(=O)Nc2ccco2)c1	i	1.1	-2.4	6
53	N#Cc1nc(-c2ccccc2)oc1NCCN1CCCCC1	i	0.93	-3.2	-4
54	CN(C)c1nc(-c2cccnc2)nc(-c2ccc(Cl)cc2)c1C#N	i	0.92	.	13
55	Cc1noc(C)c1C(=O)NC(C)c1ccc2c(c1)OCO2 (stereo unspecified)	i	1.1	-3.0	-3
56	S=C(NC1CC2CCC1C2)N1CCN(c2cccc(Cl)c2)CC1 (stereo unspecified)	i	1.1	.	-2
57	CCN1CCN(CCC(=O)Nc2cccc(OC)c2)CC1	i	1.1	-0.9	-5
58	CSc1cccc(NC(=O)CSc2ccccc2)c1	i	0.88	-2.3	-2
59	COCCNC(=O)Cn1c(=O)n(CCCCCC(=O)NCc2ccc3c(c2)OCO3)c(=O)c2sccc21	i	1.1	.	3
60	Cc1[nH]c2ccccc2c1/C=C(/C#N)C(=O)NC(C)C	i	0.92	.	3

No.	INS promoter inh	INS promoter inh cell count	RGS16-Gao HTS
51	.	.	113
52	0	138	97
53	24	50	102
54	.	.	100
55	-362	51	92
56	.	.	101
57	0	97	89
58	-12	234	103
59	.	.	102
60	.	.	97

(further entries)
No.	structure	HSV augment	HSV augment primary fold	GALR2 ag	PKD1 kinase inh
61	Cc1cc(C)cc(NC(=O)CSc2nnc(-c3ccccc3Br)o2)c1	i	0.83	-1.1	-11
62	C=CCNC(=O)/C(=C\c1cccc([N+](=O)[O-])c1)NC(=O)c1ccccc1	i	0.91	-0.1	-6
63	COc1cccc(C(=O)NC2CCN(CC(=O)NCc3ccccc3OC)CC2)c1	i	0.89	-0.2	-3
64	COc1cc(/C=N/NC(=O)c2ccc(-c3ccccc3)cc2)cc(OC)c1OC	i	0.87	2.0	8
65	CCOC(=O)c1cnc2ccc(C(=O)OC)cc2c1NCc1ccco1	i	0.98	0.2	3
66	N#C/C(=C\c1ccncc1)c1nc2c(s1)CCCC2	i	1	.	3
67	COc1ccc(C(=O)COc2ncnc3cc(Cl)ccc23)cc1	i	0.93	.	.
68	O=[N+]([O-])c1cc(S(=O)(=O)NC2=NCCCCC2)ccc1NCC1CCCCC1	i	0.95	.	-1
69	O=C(C[n+]1ccc(-c2nnc3n2CCC3)cc1)c1ccc(Cl)c(Cl)c1	i	0.96	-0.6	-3
70	CC(C)C(=O)Nc1c(-c2ccccc2)c(=O)c2ccccc2n1C	i	1.2	.	.

No.	INS promoter inh	INS promoter inh cell count	RGS16-Gao HTS
61	-27	118	97
62	.	.	98
63	0	170	100
64	-443	103	110
65	-450	28	102
66	.	.	105
67	.	.	98
68	-9	78	99
69	-46	138	105
70	.	.	100

The list continues.
No.	structure	HSV augment	HSV augment primary fold	GALR2 ag	PKD1 kinase inh
71	COc1cc(C=O)ccc1OCc1c(C)noc1C	i	1	-2.7	5
72	CC(=O)c1c(NC(=O)c2ccccc2)[nH]c(-c2ccccc2)nc1=S	i	1.1	.	-4
73	NC(=O)COC(=O)/C=C/c1ccc2ccccc2n1	i	0.85	.	-8
74	C=C(C)COc1ccc(-c2n[nH]c(C)c2-c2ccccc2)c(O)c1	i	0.98	0.0	0
75	CCOC(=O)c1cnc(SCC(=O)Nc2nnc(CC)s2)nc1N	i	0.92	-1.5	0

No.	INS promoter inh	INS promoter inh cell count	RGS16-Gao HTS
71	16	133	107
72	-210	85	99
73	.	.	99
74	65	25	96
75	.	.	100
